Assay outcomes as filed in PubChem BioAssay.
KCNQ2 enhance: potentiators of rat KCNQ2 potassium channel | Potassium voltage-gated channel subfamily KQT member 2 (Rattus norvegicus), O88943 | CHO-K1 KCNQ2, FluxOR thallium flux fluorescence; stronger effect = higher value | B-score at 10 µM | 0.54% of 310,000 active | AID 2239, 2010;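 active = fluorescence ratio B-score at least 3 SD of library B-scores, with initial fluorescence B-score within 3 SD, cut at about 5.3 in these data; same plate scores as AID 2156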;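 also: B-score of peak minus minimum over baseline fluorescence ratio after K+ and Tl+ stimulus; positive B-score means potentiation of KCNQ2 with more thallium influx and brighter signal; only the inactives scoring about 0 or higher are listed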
Target sequence (O88943 whole entry, looked up): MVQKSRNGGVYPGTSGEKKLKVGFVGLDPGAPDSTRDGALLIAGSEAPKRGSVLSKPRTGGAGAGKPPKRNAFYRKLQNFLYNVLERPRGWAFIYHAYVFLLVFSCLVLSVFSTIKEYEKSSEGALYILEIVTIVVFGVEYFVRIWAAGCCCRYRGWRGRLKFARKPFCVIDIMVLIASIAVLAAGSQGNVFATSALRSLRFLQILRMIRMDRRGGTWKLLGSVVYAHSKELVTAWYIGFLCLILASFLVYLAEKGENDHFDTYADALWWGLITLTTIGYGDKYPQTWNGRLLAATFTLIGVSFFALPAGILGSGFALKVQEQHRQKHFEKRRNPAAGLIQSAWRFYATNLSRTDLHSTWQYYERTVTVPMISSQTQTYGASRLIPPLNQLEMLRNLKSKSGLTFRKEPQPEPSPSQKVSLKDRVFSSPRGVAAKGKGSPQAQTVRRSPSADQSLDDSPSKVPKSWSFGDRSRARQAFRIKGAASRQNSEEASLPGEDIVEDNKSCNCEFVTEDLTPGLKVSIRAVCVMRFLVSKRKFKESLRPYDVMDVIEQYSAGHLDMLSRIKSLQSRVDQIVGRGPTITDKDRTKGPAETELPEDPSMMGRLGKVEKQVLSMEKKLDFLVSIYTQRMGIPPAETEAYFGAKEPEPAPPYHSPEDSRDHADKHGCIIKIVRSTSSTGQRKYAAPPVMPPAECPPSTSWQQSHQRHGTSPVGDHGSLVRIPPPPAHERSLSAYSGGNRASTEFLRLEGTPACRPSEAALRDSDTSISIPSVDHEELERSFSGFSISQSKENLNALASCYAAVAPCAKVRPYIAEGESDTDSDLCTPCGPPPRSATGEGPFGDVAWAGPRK
KCNQ2 enhance baseline: further read-out of KCNQ2 enhance, marked with its call; B-score; compound at 10 µM; measured here: initial fluorescence intensity artifact check;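 brightness before thallium and not channel activity; 0 = typical well and far values either way flag optical interference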
Numbers without * were called inactive. Only part of the results is shown; rates above refer to the full screens.

Compound	KCNQ2 enhance	KCNQ2 enhance baseline
CCCn1c(SCC(=O)NCCc2ccccc2)nnc1-c1ccco1	1.76	0.55
COC(=O)C(Cc1ccc(O)cc1)NC(=O)C12CC3CC(CC(C3)C1)C2 (centres undefined)	0.91	1.38
Cc1nnc(SCC(=O)Nc2sccc2C#N)n1Cc1ccccc1	1.67	0.72
CN(C)S(=O)(=O)N1CCN(C(=O)c2cccs2)CC1	0.71	-0.23
O=C(NC1CCCc2ccccc21)c1cncc(Br)c1 (centres undefined)	0.18	1.74
COc1ccc(OCc2cc(C(=O)NCC(C)Oc3cccnc3)no2)c(Cl)c1 (centres undefined)	1.18	0.07
CCC1=NN(C(=O)c2ccc(Cl)cc2)C(O)(c2ccc(C)cc2)C1 (centres undefined)	2.15	-0.03
Cc1ccc(C(=O)C2COC(=O)C2)cc1 (centres undefined)	0.64	-0.49
Cn1ncc(Cl)c1C(=O)Nc1ccc2c(c1)OCO2	0.28	0.75
NC(=O)C1(N2CCCCC2)CCN(C(=O)NC2CCCCC2)CC1	0.3	0.41
O=C(NC1CC1)c1ccc(-c2ccccc2)cc1	1.15	0.48
CCCN1CCC(=O)N([C@H](COc2ccccc2)Cc2ccccc2)CC1	0.05	0.45
N#CCNc1ccc([N+](=O)[O-])cc1C#N	0.15	0.21
C=CCN1CC(=O)N2C(c3ccccc3)c3[nH]c4ccccc4c3C[C@H]2C1=O (some centres undefined)	1.22	0.08
CC(=O)OCC1OC(Sc2cccc3cccnc23)C(OC(C)=O)C(OC(C)=O)C1OC(C)=O (centres undefined)	0.01	1.35

Overlap with the part before: three entries; new compounds follow.
Compound	KCNQ2 enhance	KCNQ2 enhance baseline
N#CCNc1ccc([N+](=O)[O-])cc1C#N	0.15	0.21
C=CCN1CC(=O)N2C(c3ccccc3)c3[nH]c4ccccc4c3C[C@H]2C1=O (some centres undefined)	1.22	0.08
CC(=O)OCC1OC(Sc2cccc3cccnc23)C(OC(C)=O)C(OC(C)=O)C1OC(C)=O (centres undefined)	0.01	1.35
CCc1nnc(NC(=O)C2CCCCC2)s1	0.61	-0.56
CC(C)(C)C(=O)NC(c1ccccc1)c1c(O)ccc2ccccc12 (centres undefined)	0.72	1.15
S=c1[nH]nc(-c2ccc(Br)o2)n1Cc1ccccc1	0.68	0.1
Cc1cc(C(F)(F)F)n2nc(-c3cnn(C)c3C(F)(F)F)c(Br)c2n1	0.59	-0.74
CC(=O)Nn1c(-c2ccccc2)cc2ccccc21	0.7	0
O=c1c2ccccc2oc2nc(-c3cccs3)n(CCc3ccccc3)c(=O)c12	0.2	0.02
CC(=O)Nc1c(O)nc(SCC(=O)Nc2ccc(C(C)=O)cc2)[nH]c1=O	0.24	-0.54
CCOC(=O)C1=C(C)NC(C)=C(C(=O)OCC)C1c1cn(-c2ccccc2)nc1-c1ccco1	11.4*	0.76*
CCC(C)(C(=O)NC1CCCC1)N(CC1CCCO1)C(=O)c1ccc2c(c1)OCO2 (centres undefined)	1.21	0.47
O=C(CCNS(=O)(=O)c1cccc2nonc12)NC1CCCCC1	0.78	1.05
C=CCNC(=O)/C=C/c1c(F)cccc1Cl	0.03	0.08
CCc1ccccc1NC(=S)N1CCN(c2cccc(OC)c2)CC1	0.26	0.88
COc1ccc(-c2cc(=O)oc3cc(OC(=O)C4CCCCC4)c(Cl)cc23)cc1	1.12	-1.62
COc1ccccc1/C=N/OC(=O)c1ccc(F)cc1	0.79	-0.32
CCOc1cc(Br)c(CC(=O)NC2CCCCCC2)cc1OCC	13.6*	0.23*

Compound	KCNQ2 enhance	KCNQ2 enhance baseline
CN1C(=O)c2ccc(NC(=O)CCS(=O)(=O)c3ccccc3)cc2C1=O	1.39	-1.07
O=C(/C=C/NNC(=O)c1ccccc1O)c1ccccc1	4.06	-0.02
CCCC(=O)Nc1cc(S(=O)(=O)N(CC)CC)ccc1Cl	0.35	-0.04
C=CCNC(=O)c1ccc2c(=O)n(CCCN3CCCC3=O)c(=S)[nH]c2c1	0.05	-0.9
CC1(OC(=O)c2ccc(Cl)nc2)C(=O)C=C2C=C(c3ccc(C#N)cc3)OC=C2C1=O (centres undefined)	1.09	-0.89
COc1cc(C2C(C(=O)OC(C)C)=C(C)Nc3ncnn32)cc(OC)c1OC (centres undefined)	0.54	1.01
CC(C)C(NC(=O)c1ccc(C(C)(C)C)cc1)C(=O)NCC1(N(C)C)CCCCC1 (centres undefined)	1.88	-1.19
CC1(C)CC(=O)C2=C(C1)OC1=C(C(=O)CC(C)(C)C1)C2(C)C	1.01	-0.58
COc1cccc(N2CN(CCc3ccccc3)CNC2=S)c1	0.16	0.11
COc1ccc(-n2c(C)cc(/C=C3\SC(=O)NC3=O)c2C)cc1	0.01	-0.51
CCC(C)Sc1ccc([C@H]2N[C@@](C)(C(=O)OC)[C@H]3C(=O)N(C)C(=O)[C@@H]23)cc1OC (some centres undefined)	0.92	1.31
C=CCn1c(N)cc(=O)nc1SCC(=O)Nc1ccc(C)cc1	0.06	0.96
S=c1[nH]nc(C2CCCCC2)n1/N=C/c1ccccn1	1.31	-0.29
C#CCNC(=O)C1=C[C@H](C)[C@@H](CCCO)[C@H](OCC)O1	0.15	-0.06
COc1ccc(-n2c(Cn3c(=O)sc4ccccc43)nnc2SC)cc1	1.69	0.32

Compound	KCNQ2 enhance	KCNQ2 enhance baseline
C=CCOc1ccc(C2=NOC(C(=O)Nc3ccc4c(c3)OCCO4)C2)cc1 (centres undefined)	0.62	0.93
CN(C)CCNC(=O)Cn1c(=O)c2cccn2c2ccc(F)cc21	0.02	-1.75
COc1cn(-c2ccccc2)nc1C(=O)NCc1ccc(C)cc1	0.54	-1.44
O=C(Nc1nnc(SCc2ccc(Cl)cc2)s1)C1CC(=O)N(Cc2ccccc2)C1 (centres undefined)	0.97	-1.33
CCN(C#N)c1nc(N(C)C)nc(N(C)C)n1	1.22	-0.21
CCC(=O)c1cc(F)c(N2CCN(C(=O)Cc3ccccc3)CC2)cc1C	0.81	0.29
CC(C)n1nnnc1SCC(=O)c1ccc2c(c1)OCCO2	1.7	-0.96
CCCC(=O)Nc1cc(C(=O)N(C)CC(OC)OC)ccc1S(=O)(=O)c1ccc(C)cc1	0.01	-0.01
C/C(=N\NC(=O)COc1ccc(C(C)(C)C)cc1)c1ccccc1	0.44	-0.02
CNC(=S)N1CCN(C(c2ccccc2)c2ccccc2)CC1	0.55	0.24
Cc1cccc(C)c1NC(=O)C1(N(Cc2ccco2)C(=O)Cn2nnnc2N)CCCCC1	1.71	-0.4
Cc1ccc(CNC(=O)C2CCC(=O)N(Cc3ccccc3F)C2)s1 (centres undefined)	0.73	3.48
Cc1c(CCC(=O)O)c(=O)oc2cc(OCc3ccccc3F)ccc12	0.57	1.08
CC(=O)c1c(C)[nH]c(C(=O)Nc2cc(S(=O)(=O)N(C)C)ccc2C)c1C	2.38	-0.85
CCOc1ccc(C(=O)Nc2nccs2)cc1[N+](=O)[O-]	0.5	-1.5

Compound	KCNQ2 enhance	KCNQ2 enhance baseline
CCCNC(=O)Nc1ccc(F)c(Cl)c1	0.78	0.11
CCS(=O)(=O)N1CCCC(C(=O)NCCCN(C)Cc2ccccc2)C1 (centres undefined)	1.12	2.31
O=C(Oc1ccc2cc(Br)ccc2c1)c1cccnc1	0.39	-0.58
COC(=O)c1ccc(Nc2nc(-c3ccncc3)nc3ccccc23)cc1	0.9	1.18
Cc1cccc(C)c1OCC(=O)N/N=C/c1cc2c(cc1[N+](=O)[O-])OCO2	0.31	0.9
CCOC(=O)C1Nc2ccc(C)cc2C2C=CCC12 (centres undefined)	0.52	0.8
CCOC(=O)c1c(NC(=O)C2CCCCC2)sc2c1CCN(C(C)C)C2	0.48	-0.61
CC1CN(C(=O)COC(=O)c2cccs2)CC(C)O1 (centres undefined)	0.11	-0.53
O=C(c1nnc(Cc2ccc(Cl)cc2)o1)N1CCOCC1	0.02	-0.66
CCCNC(=O)COC(=O)CCC(=O)c1ccc(F)cc1	0.02	-0.43
O=[N+]([O-])c1ccc(Cl)c(S(=O)(=O)n2ccnc2)c1	1.26	0.17
O=C(C(c1ccccc1)c1ccccc1)N1CCN(CCN2C(=O)c3cccc4cccc(c34)C2=O)CC1	0.68	0.12
Cc1cc(C)c(S(=O)(=O)Nc2cccc(-n3cnnn3)c2)c(C)c1	0.92	0.08
CC(C)C(NC(=O)C(NC(=O)C1OC2OC(C)(C)OC2C2OC(C)(C)OC12)C(C)C)C(=O)O (centres undefined)	1.7	1.49
CCOc1ccc(-n2c(C)c(C(=O)O)c3cc(OC)ccc32)cc1	0.58	0.24

Compound	KCNQ2 enhance	KCNQ2 enhance baseline
CC(O)CNC(=O)C1CCN(Cc2ccc(OCc3ccccc3)cc2)CC1 (centres undefined)	0.29	-0.45
Cc1ccc(-c2cc(C(F)F)n3ncc(C(=O)N4CCCc5ccccc54)c3n2)cc1	0.13	-0.51
COc1ccc(-c2cnc(N)nc2-c2ccc(OC)cc2O)cc1	0.23	-1.61
c1ccc(-c2ccc3c(c2)NCCN3)cc1	0.04	1.02
COc1ccc(CCNC(=O)c2cc(C)oc2C)cc1OC	0.28	1.55
Cc1ccc2cc(CN(CCCN3CCOCC3)C(=O)NC3CCCCC3)c(=O)[nH]c2c1C	1.62	-0.58
Cc1ccc(C(=O)C(C)[n+]2cccc(C(N)=O)c2)cc1 (centres undefined)	0.16	-0.03
COc1ccc(CCC(=O)Nc2ccc(N3CCOCC3)cc2)cc1	0.12	0.12
CCOC(=O)c1c(C)[nH]c(C(=O)Nc2ccc(C)c(Cl)c2)c1C	0.98	0.21
CCCNC(=O)Nc1ccc(NC(C)=O)cc1	0.97	1.32
COc1cc(OC)c(OC)cc1CNCCNC(=O)c1nonc1N	0.71	0.09
CCC(C)NC(=O)C1CCN(S(=O)(=O)c2cccs2)CC1 (centres undefined)	0.55	-2.29
Cc1nc2ccccn2c1-c1csc(NCc2ccco2)n1	0.87	0
CCOc1ccc2oc(C(=O)Nc3cc(C)ccn3)c(C)c2c1	0.08	0.39
Cc1cccc(OCCC(=O)Nc2ccc(F)c(Cl)c2)c1	4.72	0.92

3 entries drawn at random from those above, as already listed:
Compound	KCNQ2 enhance	KCNQ2 enhance baseline
Cc1ccc(-c2cc(C(F)F)n3ncc(C(=O)N4CCCc5ccccc54)c3n2)cc1	0.13	-0.51
CC(O)CNC(=O)C1CCN(Cc2ccc(OCc3ccccc3)cc2)CC1 (centres undefined)	0.29	-0.45
c1ccc(-c2ccc3c(c2)NCCN3)cc1	0.04	1.02

The results go on.
Compound	KCNQ2 enhance	KCNQ2 enhance baseline
O=C(O)c1cccnc1Nc1ccc(Cl)cc1	1.32	-0.98
O=C(COc1coc(CN2CCN(c3ccccc3)CC2)cc1=O)NCC1CCCO1 (centres undefined)	2.55	-0.47
CN(C)CCOC(C1CCCCC1)C1CCCCC1	2.38	1.51
Cc1ncc(CN2CCC(CO)(CCc3ccccc3)CC2)s1	0.03	2.66
CCC1C(=O)N=C(SCC(=O)Nc2ccc(C)cc2)N(c2ccccc2)C1=O (centres undefined)	0.55	-1.35
Cc1ccc(/C=N/Nc2cccc(C(=O)O)c2)s1	1.5	0.1
c1csc(CCNc2ncnc3sc4c(c23)CCC4)c1	0.14	1.82
CCN(CC)C(=O)CN1CCC(n2c(C)nc3cc(C(F)(F)F)ccc32)CC1	0.62	-0.33
Cc1cc2ccccc2n2c(SCC(=O)N3CCOCC3)nnc12	1.22	0.89
CN1CCc2c1nc1ccccc1c2N (tested in a mixture with another compound)	0.14	-0.58
Cc1ccc(C(=O)CN(C(=O)c2ccc(Cl)cc2)N2C(=O)CCC2=O)cc1	0.08	-0.74
O=C(c1cc2cc(Br)ccc2o1)N1CCOCC1	0.33	0.34
CC1CCc2c(sc(NC(=O)CSc3nnc(-c4ccccc4)o3)c2C#N)C1 (centres undefined)	1.73	-1.9
COc1ccc(/C=N/Nc2nc(-c3ccc(C)cc3)c(C#N)c(=O)[nH]2)cc1	0.67	0.84
CCOc1cc(S(=O)(=O)Nc2ccc(Cl)cn2)ccc1F	1.06	2.53

Compound	KCNQ2 enhance	KCNQ2 enhance baseline
CC1CCN(C(=O)CCNS(=O)(=O)c2ccc3c(c2)oc(=O)n3C)CC1	1.41	0.03
COc1ccc(CCN(C)C(=O)c2cc(S(=O)(=O)NCc3ccccc3)ccc2C)cc1OC	0.03	-0.07
COc1cc2nc(C3CC3)n(NC(=O)c3ccc(F)cc3)c(=O)c2cc1OC	0.11	-0.67
CNC(=O)C(=O)N/N=C/c1ccccn1	0.28	-2.21
Cc1ccc(/C=C/C(=O)NC(C)c2ccccc2)cc1 (centres undefined)	3.84	0.71
Cc1nc2ccc(NC(=O)c3ccc(S(=O)(=O)N(C)C)cc3)cc2s1	0.29	-3.46
CCc1ccccc1NC(=O)c1cc([N+](=O)[O-])ccc1N1CCOCC1	1.33	-0.04
CCc1csc(CCNC(=O)C2CCC(=O)N(Cc3cccc(C(F)(F)F)c3)C2)n1 (centres undefined)	0.54	-0.02
O=C(NCCCN1CCCC1=O)c1cccs1	0.38	-1.52
Cc1c(Cl)ccc2sc(NC(=O)CN3C(=O)c4ccccc4C3=O)nc12	0.16	0.22
CCOC(=O)c1cc(C(=O)Nc2ccccc2F)nn1C	1.3	-0.82
CC(C(=O)N1CCCc2ccccc21)N1C(=O)c2ccccc2C1=O (centres undefined)	0.01	2.33
